Screening data as filed in PubChem BioAssay.
PINK1 modulator – PINK1 expression modulation; hit rate 0.2% among 410,000; Potency, µM (series often up to 76.6 µM), without a hit: at the top dose activation (PINK1 increase), hits mostly activators; AID 624263; PINK1 immunofluorescence, high-content cytometry, 24 h; active = well fitted activation curve with a large enough effect; inconclusive = small, poorly fitted or top-dose-only effect; inactive = flat fitted curve, though single readings scatter; cell line not stated here;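 further: potency means the concentration at half of the fitted maximal effect; % of control where 0% means no effect; nearly all actives have a fitted effect of over 65% in size; a mitochondrial uncoupler was the plate control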
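Measures PINK1 amount and localization on or inside mitochondria by immunofluorescence. Stable cells get compounds at 5 concentrations for 24 hours before fixation and staining; CCCP controls included.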
D2 ag – human D2 receptor agonism in beta-arrestin assay; activation, % (no concentration beside the values); hit rate 0.084% among 360,000; DiscoveRx PathHunter D2 beta-arrestin, luminescence, 90 min; 100% = 57 uM dopamine signal; P14416; in the data active = activation above about 40%; inconclusive = about 15% to 40%; inactive = below about 15%; further: compound concentration not given in the record; the text of the record calls up to 30% inactive
Target sequence (P14416 whole entry, looked up): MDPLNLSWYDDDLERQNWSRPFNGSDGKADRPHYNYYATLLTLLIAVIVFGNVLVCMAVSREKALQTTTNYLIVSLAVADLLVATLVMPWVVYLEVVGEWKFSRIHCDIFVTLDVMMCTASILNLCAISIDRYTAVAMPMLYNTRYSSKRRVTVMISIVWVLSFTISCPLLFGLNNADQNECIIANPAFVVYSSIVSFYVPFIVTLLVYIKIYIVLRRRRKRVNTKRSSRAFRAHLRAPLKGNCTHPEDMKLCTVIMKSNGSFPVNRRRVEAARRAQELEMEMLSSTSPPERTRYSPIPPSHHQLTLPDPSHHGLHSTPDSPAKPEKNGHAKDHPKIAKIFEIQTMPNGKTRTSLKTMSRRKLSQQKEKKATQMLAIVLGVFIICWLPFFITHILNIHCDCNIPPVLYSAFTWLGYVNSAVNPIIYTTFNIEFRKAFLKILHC
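Agonist mode: compounds alone added to overnight-plated D2 PathHunter cells for 90 min at 37 C, with 57 uM final dopamine (EC100) defining full response. Beta-arrestin recruitment detected by chemiluminescent reagent, read after 1 h at ambient temperature.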
D2 PAM – positive allosteric modulators of human D2 dopamine receptor; DiscoveRx D2 beta-arrestin cells, luminescence, 90 min; 100% = 57 uM dopamine signal; potentiation, % (test concentration not listed); hit rate 0.23% among 360,000; active = potentiation of 50% or more; inconclusive = 30% to 50%; inactive = 30% or less;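 further: compound concentration not given in the record; tested on top of an EC20 dose of dopamine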
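PathHunter D2 cells, attached overnight at 37 deg C, received compound in DMSO plus dopamine at EC20 (50 nM final) for 90 min at 37 deg C. Beta-arrestin recruitment was read as luminescence after 1 h with detection reagent at ambient temperature.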
TRPML1 agonist – human mucolipin-1 channel agonism | AID 624414 | Q9GZU1 | activation, % (concentration not given with the values) | TRPML1-expressing cells, Ca2+ dye fluorescence, FDSS; host cell line not named in the record; reference of the full effect not given here | hit rate 0.12% among 410,000; in the data active = activation above about 50%; inconclusive = about 30% to 50%; inactive = below about 30%; further: 0% is about no effect; the text of the record puts the active cut at 80%
Target sequence (Q9GZU1 whole entry, looked up): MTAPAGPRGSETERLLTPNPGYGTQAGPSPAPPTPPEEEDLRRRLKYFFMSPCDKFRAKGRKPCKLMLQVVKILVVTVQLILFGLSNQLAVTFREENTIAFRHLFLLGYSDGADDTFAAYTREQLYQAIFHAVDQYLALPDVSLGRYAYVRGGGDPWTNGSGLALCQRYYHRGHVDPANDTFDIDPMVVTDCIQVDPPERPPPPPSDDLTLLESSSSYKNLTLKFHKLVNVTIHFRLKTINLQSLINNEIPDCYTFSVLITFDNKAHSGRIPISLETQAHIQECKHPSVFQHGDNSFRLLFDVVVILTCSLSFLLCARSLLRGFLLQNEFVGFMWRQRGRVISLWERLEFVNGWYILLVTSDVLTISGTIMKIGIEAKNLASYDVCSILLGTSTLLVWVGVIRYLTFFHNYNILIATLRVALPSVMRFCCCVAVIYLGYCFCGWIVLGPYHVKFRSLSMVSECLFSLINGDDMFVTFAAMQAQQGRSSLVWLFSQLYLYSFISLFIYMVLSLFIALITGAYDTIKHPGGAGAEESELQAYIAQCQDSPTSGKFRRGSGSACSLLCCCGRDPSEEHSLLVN
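Cells: TRPML1-DL, 1X Tet inducer, ~16 h at 37 degrees C/5% CO2. Dye: ABD Ca8 no-wash + quencher, 45-90 min RT. Read: 10 s baseline, compound add, 110 s agonist phase; 54-4 EC80 (4uM final), 110 s antagonist phase.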
Six1-Eya2 inh – Six1/Eya2 interaction inhibition | Q15475+O00167 | AlphaScreen GST-Six1/His-Eya2 binding, biochemical; active compounds read low; control for the full effect not named in the record | activity change, % (test concentration not listed) | hit rate 0.56% among 360,000 | AID 651725; in the data active = activity change below about -65%; inconclusive = about -30% to -65%; inactive = above about -30%; further: on the % scale 0 is the no-effect control and ±100 the full control effect
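GST-Six1 + His-Eya2 (5X stock: 250/500 nM); Tris pH 8.0, 300 mM NaCl, 0.05% BSA, 0.02% Tween 20; GSH donor/Ni acceptor beads; 1 h 37 °C dark; AlphaScreen readout.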
TRPML1 blocker – inhibitors of human TRPML1 channel | Q9GZU1 | TRPML1-inducible cells, Ca2+ dye fluorescence, FDSS; active compounds read low; inhibition of EC80 agonist-evoked calcium signal | activity change, negative = inhibition, % (no concentration beside the values) | hit rate 0.02% among 390,000; in the data active means activity change below about -50%; inconclusive means about -30% to -50%; inactive means above about -30%;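 further: stimulus is agonist 54-4 at its EC80 concentration; on the % scale 0 is the no-effect control and ±100 the full control effect; compound concentration not given in the record; the text of the record puts the active cut at -80%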
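TRPML1-DL cells, Tet-induced overnight (~16 h, 37 °C) at 1,500 cells/well, were loaded with Ca8 no-wash dye plus quencher for 45-90 min at room temperature. Compounds were pinned during FDSS kinetic reading; agonist 54-4 at EC80 (4 uM final) then added.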
An asterisk follows results filed as active; u = inconclusive; x = not tested or not shown; [ ] = remark or other dose.

SMILES	PINK1 modulator	D2 ag	D2 PAM	TRPML1 agonist	Six1-Eya2 inh	TRPML1 blocker
CC1Cc2ccccc2N1C(=O)CSc1nnc(Cc2ccccc2)n1CCc1ccccc1 (configuration not stated)	8.0%	-0.7	-42.0	0.5	-17.3	67.9
CCn1cc(C(=O)NCCCN2CCCCCC2)c(=O)c2cc(S(=O)(=O)N3CCc4ccccc4C3)ccc21	1.3%	2.0	-10.1	0.6	-2.8	0.3
CCNC(=O)C12CCC(C)(C(=O)C1Br)C2(C)C (configuration not stated)	-1.3%	-0.2	-9.1	-0.2	14.9	7.8
Cc1cc(C)c2c(c1)/C(=c1/sc3n(c1=O)CN(c1ccccc1)CN=3)C(=O)N2	14.0%	-4.4	-4.2	-0.5	-14.0	-4.2
O=C(CCCl)N(Cc1nc2ccccc2c(=O)[nH]1)Cc1cccs1	1.7%	-0.1	5.0	0.1	1.0	1.6
Cn1c(Cc2ccccc2)nnc1SCC(=O)c1cccs1	-0.3%	-5.0	-14.0	0.6	22.6	-19.3
O=C(Cn1cncn1)N/N=C/c1ccncc1	-0.3%	-3.8	-16.8	-0.1	-1.0	-4.4
COc1ccc2cc(C3(C)NC(=O)N(CC(=O)Nc4c(C)n(C)n(-c5ccccc5)c4=O)C3=O)ccc2c1 (configuration not stated)	1.8%	-2.1	12.7	-0.8	-10.2	-21.2
CCCC(=O)NC(C)c1nc2ccccc2n1C (configuration not stated)	-0.1%	-4.0	-7.9	-0.7	-1.5	3.2
NC(=O)C1(N2CCCCC2)CCN(Cc2ccc(F)cc2)CC1	-1.8%[38.3 µM]	-1.5	-18.4	-0.4	-0.3	5.4
Cc1ccc(F)cc1NC(=O)c1c(-c2ccccc2)noc1C	1.3%	-5.8	-7.6	-0.2	-0.7	13.4
CCn1c(=N)c(C(=O)NC)cc2c(=O)n3cccc(C)c3nc21	0.8%	-1.9	-13.0	-0.3	-15.6	-3.8
CCOC(=O)Cc1csc(NC(=S)NC(=O)c2ccc([N+](=O)[O-])cc2)n1	0.3%	5.3	1.5	0.3	-4.0	6.5
C#CCn1c(=NC(=O)c2ccc(Cl)s2)sc2cccc(OC)c21	7.6%	-1.7	-2.5	1.0	-1.1	9.1
Cc1cc(NS(=O)(=O)c2ccc(NC(=O)C(C)Oc3cc(C)c(Cl)c(C)c3)cc2)no1 (configuration not stated)	1.1%	3.6	9.5	-0.5	u	8.6
Cc1cc(C)cc(OCC(=O)N2N=C(C(F)(F)F)CC2(O)C(C)(C)C)c1 (configuration not stated)	0.2%	1.0	-6.3	2.2	12.3	12.3
OC(COc1ccc(CNCc2cccnc2)cc1)CN1CCc2ccccc2C1 (configuration not stated)	-0.6%	1.0	-7.9	0.4	5.4	-24.3
CCc1nnc(NC(=O)c2ncc(Cl)c(Cl)c2Cl)s1	-1.0%	-2.9	-10.4	-0.4	10.0	-3.0
CCCCn1c(=N)n(CCCOc2ccc(F)cc2)c2ccccc21	2.2%	x	x	0.3	x	-7.0
CCCOc1ccc(/C(O)=C2/C(=O)C(=O)N(CCCn3ccnc3)C2c2ccco2)cc1 (configuration not stated)	-0.9%	-1.1	1.0	-0.7	-3.1	1.8
CC1CC(=O)N(CC(=O)Nc2ccc(F)cc2)c2ccccc2S1(=O)=O (configuration not stated)	-1.4%	4.3	-3.4	-0.4	5.7	-9.1
CCC(=O)N1CCc2cc(S(=O)(=O)N3CCCCCC3)ccc21	2.6%	4.8	-12.6	-0.3	9.0	14.2
CCOc1ccc(NC(=O)Cn2nc(Cc3ccncc3)c3ccccc3c2=O)cc1	2.2%	x	x	1.6	x	-22.3
C#CCOCCOCCOCCNc1nc(N2CCN(C(=O)[C@H](CCCCN)n3cc([C@@H](N)[C@H](C)CC)nn3)CC2)nc(N2CCN(C(=O)[C@H](CCC(=O)O)n3cc([C@@H](N)CCSC)nn3)CC2)n1	0.0%	-0.3	x	-0.3	-4.5	2.4
COc1ccc(N2CCN(C(=O)c3cccc(S(=O)(=O)N4CCCc5ccccc54)c3)CC2)cc1	1.0%	1.0	0.1	-0.5	-27.9	3.1
COc1ccc(-c2cc(C)no2)cc1S(=O)(=O)Nc1ccccc1	4.5%	-3.8	-11.1	0.1	1.1	42.3
COC(CNC(=O)CC1C(=O)N(Cc2ccccc2)C(C)c2nc3ccccc3n21)OC (configuration not stated)	1.2%	-2.3	0.0	0.0	10.0	-7.6
COc1ccc(OCCCC(=O)NNC(=O)CCN2CCN(c3ccccc3)CC2)cc1	0.9%	7.1	-7.9	0.0	-0.7	-7.2
O=C(CNC(=S)NC(=O)c1ccccc1)c1ccccc1	2.7%	0.4	5.5	2.3	1.1	36.5
CCC1=C(c2ccc(C)cc2)S(=O)(=O)N=C1N1CCC(C(=O)Nc2ccccc2C(=O)OC)CC1	-1.0%	x	x	2.8	x	18.9

Laid out differently: results already given.
Every second line gives: PINK1 modulator, D2 ag, D2 PAM, TRPML1 agonist, Six1-Eya2 inh, TRPML1 blocker
COc1ccc2cc(C3(C)NC(=O)N(CC(=O)Nc4c(C)n(C)n(-c5ccccc5)c4=O)C3=O)ccc2c1 (configuration not stated)
  1.8%, -2.1, 12.7, -0.8, -10.2, -21.2
CCCC(=O)NC(C)c1nc2ccccc2n1C (configuration not stated)
  -0.1%, -4.0, -7.9, -0.7, -1.5, 3.2

The list goes on:
SMILES	PINK1 modulator	D2 ag	D2 PAM	TRPML1 agonist	Six1-Eya2 inh	TRPML1 blocker
CC1CC(C)CN(C(=O)CCNS(=O)(=O)c2cccs2)C1 (configuration not stated)	2.4%	-3.8	-1.7	0.2	0.0	33.1
CCOC(=O)c1sc2nc(N3CCOCC3)c3c(c2c1N)CCCC3	4.4%	-4.1	-4.5	-0.7	2.5	4.6
Cc1[nH]c2ccccc2c1CCN(Cc1cccnc1)C(=S)Nc1ccc(F)cc1	2.5%	0.9	-0.9	-0.3	-14.0	8.7
CCCCNC(=O)C1CCCN1C(=O)NC1CCCCC1 (configuration not stated)	-0.4%	-2.9	-2.3	0.2	6.4	-2.2
COCCCN1C(=O)C(=O)/C(=C(/O)c2ccc(OC)cc2)C12C(=O)N(C)c1ccccc12 (configuration not stated)	-0.6%	-4.2	-1.9	1.0	5.9	-9.0
C=C1CCN([C@H](C(=O)NCc2ccc(Cl)c(Cl)c2)C(C)C)S(=O)(=O)c2ccccc21	4.0%	0.4	5.8	1.7	6.8	-24.4
CCOC(=O)c1ccc(NC(=O)CSc2nccn2C)cc1	-1.3%	-3.5	-1.6	-0.9	-3.4	1.1
CC(=O)Nc1ccc(CC(=O)NCCC(c2ccccc2)c2ccccc2)cc1	6.5%	-2.1	1.9	1.2	2.9	5.8
CCn1c(C)nc2cc(C(=O)N/N=C/c3ccccc3)ccc21	-0.2%	-0.3	-4.6	0.0	-14.3	20.5
CCOc1ccc2c(c1)c(=O)c(S(=O)(=O)c1ccc(CC)cc1)cn2CC	1.7%	x	x	0.4	x	26.6
O=C1C2C(C(=O)N1CC1CCCO1)C1C=CC2C12CC2 (configuration not stated)	2.3%	-1.1	-7.0	-0.8	0.9	-7.0
Cc1ccc(Nc2nc(NCC3CC3)nc3ccsc23)c(C)c1	u	-1.6	-12.7	0.5	-3.1	x
Cc1ccc2[nH]c(=O)c3cc(C(=O)N4CCN(C(=O)c5ccco5)CC4)sc3c2c1	0.9%	-3.6	1.9	0.8	2.4	-7.3
Cc1cc(NC(=O)c2ccc(S(=O)(=O)N(C)CC3CCCO3)cc2)no1 (configuration not stated)	-0.2%	1.2	-3.5	-0.2	-5.1	12.4
CC(C)CC1(C)NC(=O)N(CC(=O)Nc2ccc3c(c2)CCC3)C1=O (configuration not stated)	3.2%	3.2	22.4	-0.5	4.4	-7.8
CCOc1ccccc1NC(=S)Nc1ccc(S(N)(=O)=O)cc1	1.9%	-2.4	-7.6	0.9	-8.4	19.4
Cc1ccccc1N(C(=O)c1csnn1)C(C(=O)NC1CCCC1)c1ccncc1 (configuration not stated)	-0.3%	-5.2	-9.0	-1.1	0.3	3.5
Cc1ccccc1-c1noc(-c2cccnc2NCc2ccco2)n1	1.9%	x	x	0.5	x	-9.3
COc1ccc(OCCC(=O)NC2CCCCC2)cc1	-0.9%	5.8	-6.4	1.7	-0.6	-22.8
Cc1nnc2ccc(N3CCN(c4cccc(C(F)(F)F)c4)CC3)nn12	2.4%	0.3	4.9	2.4	-19.6	59.0
O=C(CN1C(=O)COc2ccc(S(=O)(=O)N3CCCC3)cc21)NC1CC1	0.0%	-0.2	5.6	x	18.3	x
CCN(CC)C(=O)Cc1c(O)c2ccccc2[nH]c1=O	0.4%	-9.5	-8.8	x	-1.3	x
O=C(NCCc1ccccc1)c1cnc2sc(N3CCCCCC3)nn2c1=O	1.2%	x	x	0.4	x	-10.8
O=C(Nc1cc(C(F)(F)F)ccc1N1CCCCC1)c1ccc(Br)o1	1.9%	-2.5	-10.4	1.0	1.7	-5.8
COCCCn1c(=O)c2ccccc2n(Cc2ccc(C)cc2)c1=O	0.4%	0.6	11.7	-0.4	-1.2	-5.3
Cc1ccc(-n2[nH]c(=O)c3cccnc32)cc1	20.8%[38.3 µM]	-2.9	-3.8	-0.8	3.5	-4.1
c1cc[n+](CCCC[n+]2ccccc2)cc1	2.4%	-4.9	-2.8	0.2	4.7	4.2

Compound profiles, as listed above.
CCn1c(C)nc2cc(C(=O)N/N=C/c3ccccc3)ccc21 is listed as PINK1 modulator: -0.2%; D2 ag: -0.3; D2 PAM: -4.6; TRPML1 agonist: 0.0; Six1-Eya2 inh: -14.3; TRPML1 blocker: 20.5
O=C1C2C(C(=O)N1CC1CCCO1)C1C=CC2C12CC2 (configuration not stated) is listed as PINK1 modulator: 2.3%; D2 ag: -1.1; D2 PAM: -7.0; TRPML1 agonist: -0.8; Six1-Eya2 inh: 0.9; TRPML1 blocker: -7.0
